BJeLR lethal = kills HRASV12-expressing BJeLR cells; BJeLR (HRASV12) viability, CellTiter-Glo ATP luminescence, 48 h; reference of the scale not given here; 0.17% of 300,000 active; inhibition, % (test concentration not listed);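 active means replicate mean above 50%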;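 further: 50 nL library stock added to about 25 µL; numbers are from one replicate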
PrP UTR inh = suppresses PrP 5' UTR mRNA reporter expression; inhibition, % (concentration not given with the values); 0.35% of 340,000 active; cell-based PrP 5' UTR mRNA reporter, plate reader;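 active means every replicate at 50% or more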;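 further: 0 = median of the neutral control wells; tested in H4 reporter cells; numbers are from one replicate; inactives centre near -14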
* = called active by the depositor; x = no result given.

Sample of the layout (7 entries):
SMILES | BJeLR lethal | PrP UTR inh
C#CCOCCOCCOCCNc1nc(N2CCN(C(=O)[C@H](CCC(=O)O)n3cc(C(N)CC(C)C)nn3)CC2)nc(N2CCN(C(=O)[C@H](Cc3ccc(O)cc3)n3cc(C(N)[C@H](C)CC)nn3)CC2)n1 (some centres not stated) | 2 | x
O=Cc1cccc(OC(=O)c2ccc(Cl)cc2Cl)c1 | -8 | x
CCCCC1C(=O)NC(=S)NC1=O | 14 | x
CC1CN=C(N(C(=S)Nc2ccccc2)c2cccc(C(F)(F)F)c2)S1 (configuration not stated) | 7 | x
Cc1ccc[n+](CC(=O)c2ccccc2)c1 | -2 | x
CCC(=Nc1ccccc1)C1=C(O)CC(C)(C)CC1=O | -5 | x
CCCCn1c(SCC(N)=O)nnc1-c1cc(OC)c(OC)c(OC)c1 | 2 | x

Results, repeating the preview:
SMILES | BJeLR lethal | PrP UTR inh
C#CCOCCOCCOCCNc1nc(N2CCN(C(=O)[C@H](CCC(=O)O)n3cc(C(N)CC(C)C)nn3)CC2)nc(N2CCN(C(=O)[C@H](Cc3ccc(O)cc3)n3cc(C(N)[C@H](C)CC)nn3)CC2)n1 (some centres not stated) | 2 | x
O=Cc1cccc(OC(=O)c2ccc(Cl)cc2Cl)c1 | -8 | x
CCCCC1C(=O)NC(=S)NC1=O | 14 | x
CC1CN=C(N(C(=S)Nc2ccccc2)c2cccc(C(F)(F)F)c2)S1 (configuration not stated) | 7 | x
Cc1ccc[n+](CC(=O)c2ccccc2)c1 | -2 | x
CCC(=Nc1ccccc1)C1=C(O)CC(C)(C)CC1=O | -5 | x
CCCCn1c(SCC(N)=O)nnc1-c1cc(OC)c(OC)c(OC)c1 | 2 | x
O=C(c1ccc2c(c1)OCO2)n1nnc2ccccc21 | -2 | x
CS(=O)(=O)c1nc(-c2cccs2)cc(C(F)(F)F)n1 | 33 | x
O=C(N/N=C/c1cccs1)c1cccc(NC(=O)c2ccc(Cl)cc2)c1 | -20 | x
COC(=O)C1=C(C)N(CCc2cc(OC)c(OC)c(OC)c2)C(=O)N[C@H]1c1ccc(Br)cc1 | -1 | x
Cc1cc(C)n(C(=O)c2ccncc2)n1 | -1 | x
CCc1c(C)c(C#N)c2nc3ccccc3n2c1Cl | 129* | x
C[C@@H]1O[C@@H](OC2C(O)C(OCCc3ccc(O)c(O)c3)OC(CO)C2OC(=O)/C=C/c2ccc(O)c(O)c2)[C@H](O)[C@H](O)[C@H]1O (some centres not stated) | 1 | x
Cc1cc(=O)[nH]c(N/N=C/c2ccc([N+](=O)[O-])cc2)n1 | 0 | x
S=C(Sc1ccc(Cl)cc1)Sc1ccc(Cl)cc1 | 43 | x
O=C(c1ccc(-c2ccccc2)cc1)c1ccc([N+](=O)[O-])cc1 | 5 | x
Cc1cc2n(c1)CCn1c(C)ccc1-2 | 6 | x
CN(C)CCc1c[nH]c2ccc(C[C@H]3COC(=O)N3)cc12 | 3 | x
Cc1ccc(-c2ccc(/C=N/NC(=O)c3ccccc3O)o2)cc1 | -2 | x
CN(CC(=O)Nc1ccc(F)c(F)c1F)c1cnccn1 | -5 | x
C[C@H](C(=O)C=[N+]=[N-])N1C(=O)c2ccccc2C1=O | 3 | x
COc1ccc(C[C@H]2CN3C(=NC[C@@H]3Cc3ccccc3)N2C[C@H](C)NC(=O)CCC2CCCCC2)cc1 | -11 | x
Oc1ccc2c3c1OC1C(O)CC[C@@]4(O)[C@@H](C2)N(CC2CCC2)CC[C@]314 (some centres not stated) | -6 | x
COc1ccc(/C=C2\CCCc3c2nc2ccccc2c3C(=O)OCC(=O)c2c(N)n(C)c(=O)n(C)c2=O)cc1 | 13 | x
O=C(CN1C(=O)COc2ccc(S(=O)(=O)N3CCCC3)cc21)NC1CCCCCCC1 | -2 | x
COc1ccc(CN2C(=O)Cc3c2nc(N)c2c(N)nc(N4CCCCC4)c(C#N)c32)cc1 | -11 | x
CCCCCCN(C(=O)CCCCCN1C(=O)NC(c2ccc(-c3ccccc3)cc2)C(C(=O)OCc2ccccc2)=C1C)C(C(=O)NCCCC)C1CCCCC1 (configuration not stated) | 7 | x
CCOc1ccc(C(=O)N/N=C/c2c(C)[nH]c(=O)[nH]c2=O)cc1 | -2 | x
COc1cc2[nH]c(C(=O)NN)c(N)c2cc1OC | 3 | x
CSc1ccc(CNc2ccccc2)cc1 | -5 | x
CN1CCN(CC(=O)N2c3ccccc3C(=O)Nc3cccnc32)CC1 | 1 | x
CCOc1ccc(C2=NNC(c3cccs3)=Nc3ccc(OCC)cc32)cc1 | -6 | x
COc1cc(/C=N/NC(=O)c2cccc(C)c2)ccc1OCC(=O)Nc1ccccc1 | -16 | x
CC1(C)CC(=O)C(C=Nc2cccc(/N=C/C3=C(O)CC(C)(C)CC3=O)n2)=C(O)C1 | -11 | x
NC(=O)c1sc2nc3c(c(-c4cccs4)c2c1N)CCCC3 | 4 | x
COC(=O)CSc1nc2sc3c(c2c(=O)n1C1CCCCC1)CCN(C)C3 | -2 | x
O=C(N/N=C(\Cc1ncc[nH]1)c1ccccc1)c1ccccc1 | 4 | x
Oc1c(Cl)cc(Cl)cc1C=Nc1ccccc1N1CCCC1 | 9 | x
Cc1ccc(-c2csc(=S)n2CC(=O)OCC(=O)NCc2ccc(F)cc2)cc1 | -1 | x
Cc1c(-c2ccncc2)oc2ccc(Br)cc2c1=O | 3 | x
Cc1ccccc1OCCNc1cc(N2CCNCC2)ccc1[N+](=O)[O-] | 2 | x
COc1ccc(-c2nn(-c3ccccc3)cc2/C=N/NC(=O)c2ccc3c(c2)OCO3)cc1 | 4 | x
Cn1c(=O)c2c(ncn2CC(=O)N/N=C/C=C\c2ccccc2[N+](=O)[O-])n(C)c1=O | -22 | x
Cc1ccc(-c2nc(SCC(=O)NCCN3C(=O)CSC3=O)[nH]c2-c2ccc(C)cc2)cc1 | 4 | x
Cn1c(=O)c(Nc2ccc(Cl)cc2)c2c3c(cccc31)C(=O)c1ccccc1-2 | 8 | x
CC1CCCC(C)N1/N=C/c1cc(Br)c(O)c(Br)c1 (configuration not stated) | -14 | x
COC(=O)CCC(=O)OC1(C)C(=O)C2=COC(c3ccc(OC)cc3)=CC2=C(Br)C1=O (configuration not stated) | 4 | x
O=[N+]([O-])c1ccc(C23CC4CC(CC(O)(C4)C2)C3)cc1 | -3 | x
CN1CCN(CC(=O)N/N=C\c2c[nH]c3ccccc23)CC1 | 5 | x
CC(C)C[C@@H]1NC(=O)[C@H](Cc2ccc(O)cc2)NC(=O)[C@H](CCC(N)=O)NC(=O)c2cc([N+](=O)[O-])cc(I)c2NCC[C@@H](C(N)=O)NC1=O | 6 | x
CCCCc1ccc(/C=C2\C(=O)c3ccccc3C(O)=C2C(=O)OCC)cc1 | 12 | x
CN1Cc2sc(NC(=S)NC(=O)c3ccccc3)c(C#N)c2CC1(C)C | -6 | x
CC1(OC(=O)c2ccc(Cl)nc2)C(=O)C=C2C=C(c3ccsc3)OC=C2C1=O (configuration not stated) | 3 | x
OC1OC[C@@H](O)[C@H](O)[C@H]1O (some centres not stated) | -18 | x
Cc1cccc(-n2ncc3c(N4CCc5ccccc54)ncnc32)c1 | 10 | x
CC(=O)Nc1cccc(NC(=O)c2oc3ccccc3c2C)c1 | 10 | x
Cn1c(=O)c2[nH]c(N/N=C(/C#N)C(N)=O)nc2n(C)c1=O | -2 | x
C/C=C/C=C/C(=O)Nc1cccc(C2=NOC3(C2)C[C@H](C(N)=O)N(C(=O)CC(c2ccccc2)c2ccccc2)C3)c1 (some centres not stated) | -6 | x
CCOC(=O)C1CCN(Cc2ccccn2)CC1 | 5 | x
(next part)
SMILES | BJeLR lethal | PrP UTR inh
CCOC(=O)C(CC)(CCC(=O)OC)c1csc(Nc2ccccc2O)n1 (configuration not stated) | 1 | x
CCCCC1CCC(C(=O)N(CC(C)C)c2c(N)n(Cc3ccccc3)c(=O)[nH]c2=O)CC1 (configuration not stated) | 2 | x
CCCCCC(=O)Nc1cccc(C2=NOC3(C2)C[C@H](C(N)=O)N(C(=O)CC#N)C3)c1 (some centres not stated) | -9 | x
COc1cc(/C=N/Nc2nc(N3CCCCC3)nc(N3CCCCC3)n2)ccc1OC(=O)c1ccco1 | -2 | x
CC(=O)c1ccc(-c2ccccc2[C@H]2[C@H]3C=CC[C@@H](C)[C@@H]3C(=O)N2Cc2ccccc2)cc1 | 8 | x
CCc1ccc2nc(N3C(=O)c4oc5ccccc5c(=O)c4C3c3ccc(OC)c(OC)c3)sc2c1 (configuration not stated) | 4 | x
N#CC1=C(N)Nc2ncnn2C1c1ccccc1 (configuration not stated) | -36 | x
CSc1nc(-c2ccccc2)nc(N)c1C(C)=O | -7 | x
O=C(NNC(=O)C1C2CCC(C2)C1C(=O)O)c1ccc(Br)o1 (configuration not stated) | 2 | x
O=C1COc2ccc(N3C(=O)c4ccccc4C3=O)cc2N1 | -1 | x
C#CCOCCOCCOCCNc1nc(N2CCN(C(=O)[C@H](Cc3ccc(O)cc3)n3cc([C@@H](N)CC(C)C)nn3)CC2)nc(N2CCN(C(=O)[C@H](Cc3ccc(O)cc3)n3cc([C@@H](N)CC(C)C)nn3)CC2)n1 | -19 | x
COC(=O)n1c(=S)oc2cc(Cl)ccc21 | 3 | x
CCN(CC)S(=O)(=O)c1ccc(C(=O)N2CCN(CCN3C(=O)c4cccc5cccc(c45)C3=O)CC2)cc1 | 4 | x
CC1(OC(=O)c2ccc(Cl)nc2)C(=O)C=C2C=C(C3CC3)OC=C2C1=O (configuration not stated) | -2 | x
Cc1c(N=c2c(=O)c3ccccc3c2=O)c(=O)n(-c2ccccc2)n1C | -4 | x
N[C@@H]1CONC1=O | -8 | x
CC(=O)Nc1ccc(Cc2nc3c([nH]2)c(=O)n(C)c(=O)n3C)cc1 | 8 | x
CCC(=O)O[C@@H]1CC(=O)O[C@H](C)CC=CC=C[C@@H](O)[C@H](C)C[C@H](CC=O)[C@H](O[C@H]2O[C@H](C)[C@@H](O[C@H]3C[C@@](C)(O)[C@@H](OC(=O)CC)[C@H](C)O3)[C@H](N(C)C)[C@H]2O)[C@H]1OC | 1 | x
CC(=O)O[C@H]1CC(C)(C)C(=C=C/C(C)=C/C=C/C(C)=C/C=C/C=C(C)/C=C/C=C(\C)C(=O)C[C@@]23O[C@]2(C)C[C@@H](O)CC3(C)C)[C@](C)(O)C1 | -3 | x
O=C(O)Cc1ccc(NC(=O)C2CC=CCC2C(=O)O)cc1 (configuration not stated) | -13 | x
Cc1ccc(C)n1-c1cccc(C(=O)O)c1 | -4 | x
COC(=O)C(=C/C=C/N1CCOCC1)C(=O)OC | -6 | x
C/C(=N\Nc1ccc2nncn2n1)c1ccccn1 | 62* | x
CC(=O)Nc1ccc(SC[C@H](c2ccccc2)N2CCN(CCc3ccccc3)CCC2=O)cc1 | -7 | x
O=C(COC(=O)/C=C/c1cccc(Cl)c1)Nc1ccccc1-c1ccccc1 | 10 | x
N[C@H]1CONC1=O | -10 | x
COc1ccc(-c2nc(CC(=O)O)cs2)cc1OC | 0 | x
C[C@@H](O)[C@H]1C(=O)N2C(C(=O)O)=C(S[C@@H]3CN[C@H](C(=O)N(C)C)C3)[C@H](C)[C@H]12 | 2 | x
O=Cc1coc2c(ccc3ccccc32)c1=O | -8 | x
C[C@@H]1NC(=O)c2cc([N+](=O)[O-])cc(I)c2NCCCC[C@@H](C(N)=O)NC(=O)[C@H](CC(N)=O)NC1=O | x | -15
O=C(C[n+]1ccc(/C=N/O)cc1)NC(=O)Nc1ccccc1 | x | -14
C#CCOCCOCCOCCNc1nc(N2CCN(C(=O)CCCCCCCCCCNC(=O)[C@H]([C@@H](C)CC)n3cc(CCCCN=C(N)N)nn3)CC2)nc(N2CCN(C(=O)CCCCCCCCCCNC(=O)[C@H](CO)n3cc(CCCSC)nn3)CC2)n1 | x | -26
O=C1C2CCCCN2C(=O)N1CCCCN1CCN(c2cccc(C(F)(F)F)c2)CC1 (configuration not stated) | x | -11
O=C(N/N=C/c1ccncc1)c1cccc(S(=O)(=O)N2CCCC2)c1 | x | 2
COc1ccc(/C=C2/Sc3ccc(C(=O)NCCCN4CCOCC4)cc3NC2=O)cc1OC | -1 | -6
CCN(CC)C(=N)/C(C#N)=N/Nc1ccc(C)cc1 | -1 | -83
CC1CCc2c(sc(NC(=O)CCCn3cnc([N+](=O)[O-])n3)c2C(N)=O)C1 (configuration not stated) | 7 | -40
COc1ccc(CCN(C)C2CCCN(S(=O)(=O)N(C)C)C2)cc1OC (configuration not stated) | -11 | -6
COc1ccc(/C=N\NC(=O)COc2ccccc2Cl)cc1Cn1nc(C)cc1C | 9 | -17
Cn1nc(C(C)(C)C)cc1C(=O)Sc1cccc(Br)c1 | -5 | -6
COc1cc(C(=O)N/N=C/C23CC[C@@H](O)CC2(O)CC[C@@H]2[C@@H]3CCC3(C)C(C4=CC(=O)OC4)CCC23O)ccc1O (some centres not stated) | 11 | -17
COc1ccc(OC)c(/C=N/NC(=O)c2ccncc2)c1 | 0 | -11
CCOc1ccc2ccccc2c1/C=N/NC(=O)c1ccncc1 | -1 | -10
O=Cc1[nH]c2ccccc2c1N(C(=O)CCl)c1ccc([N+](=O)[O-])cc1 | 111* | -22
COc1ccc(C(=O)N/N=C/c2cc(Br)ccc2O)cc1OC | -11 | 27
COc1cccc(/C=N/Nc2ncccc2[N+](=O)[O-])c1OC | 40 | 39
O=c1[nH]ncc(N/N=C\c2cccnc2)c1Cl | 1 | 3
CCOC(=O)c1c(CCl)nc2ccccc2c1-c1ccccc1 | 2 | -11
COc1ccc(CN2C(=O)NC(=O)/C(=C/c3ccc([N+](=O)[O-])s3)C2=O)cc1 | 25 | -9
O=C(NC(=S)Nc1c(F)cc(F)cc1Br)c1ccc2c(c1)OCCO2 | 12 | 6
CC(C)c1ccc(/C=N/NC(=O)c2ccccn2)cc1 | -8 | 24
CCC(C)Sc1ccc(-c2nc3ccc(C)cn3c2NC2CCCCC2)cc1 (configuration not stated) | 7 | -11

This is a subset; count on the stated rates, not on these rows.
